Ecoli growth = E. coli growth inhibition; Escherichia coli growth, OD600, 23 h; hits give low values; OD600 absorbance (test concentration not listed); 330,000 tested, 0.21% active; AID 1053175;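 active = OD600 absorbance below the run mean of sample wells minus 3.6 SD, in any replicate, cut at about 0.56 in these data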;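 also: stock transfer was 300 nL into about 60 µL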
rRNA inh HTS = inhibits bacterial ribosomal RNA function over humanized ribosomes; E. coli WT GFP vs humanized-ribosome RFP mutants, fluorescence, 24 h; hits give low values; DMSO median 0, no signal -100; GFP signal change (wild-type ribosome), % (concentration not given with the values); 350,000 tested, 1.6% active;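 active = significant combined selectivity score with lowered wild-type GFP, culture density cut under 30%, mutant RFP and density less affected; inactive = any of these conditions unmet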; also: one replicate is shown; some compounds called inactive have numbers as strong as hits
T cruzi inh = T. cruzi replication inhibition. T. cruzi beta-gal in NIH3T3, luminescence, 90 h. inhibition, % (no concentration beside the values). 300,000 tested, 1.4% active;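 active = mean inhibition across valid replicates above about 55%, limit read from the data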;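 also: signal also drops with host cell toxicity which is not excluded here; 0% = plate median of DMSO wells and 100% = zero luminescence signal; higher percent means less beta-gal luminescence so fewer parasites; stock transfer was 50 nL into about 50 µL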
Beta apoptosis = beta cell apoptosis inhibition. AID 435005. INS-1E cytokine-induced death, ATP luminescence, 48 h; percent of positive-control rescue, neutral wells zero. protection from apoptosis, % (concentration not given with the values). 300,000 tested, 0.8% active;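 active = all replicates at 75% or more, or half of them and the mean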;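 also: 0% = cytokine-treated negative control wells and 100% = positive control rescue; higher means more ATP so stronger rescue from cytokine killing; wells of about 40 µL received 100 nL stock; the first replicate is given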
A1 inh = inhibitors of the anti-apoptotic protein A1, read as caspase activation. MEF A1-2A-BIM cells, Caspase-Glo 3/7 luminescence, 3 h; percent of clofoctol response, vehicle zero. 330,000 tested, 0.066% active. caspase activation, % (test concentration not listed);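 active = over half of replicate activation scores above 10%, or exactly half above 10 with the replicate mean above 10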;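 also: wells of about 30 µL received 50 nL stock; many hits fall short of the cut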
UCH37 DUB inh = blocks the human deubiquitinase UCH37 | 330,000 tested, 0.33% active | inhibition, % (test concentration not listed) | Q9Y5K5 | purified proteasome/UCH37, Ub-AMC cleavage fluorescence | AID 588478;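 active = mean of two replicates above 20%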;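 also: 0% = compound-free wells with enzyme and 100% = wells lacking proteasome; stock transfer was 100 nL into about 20 µL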
Target sequence (Q9Y5K5 whole entry, looked up): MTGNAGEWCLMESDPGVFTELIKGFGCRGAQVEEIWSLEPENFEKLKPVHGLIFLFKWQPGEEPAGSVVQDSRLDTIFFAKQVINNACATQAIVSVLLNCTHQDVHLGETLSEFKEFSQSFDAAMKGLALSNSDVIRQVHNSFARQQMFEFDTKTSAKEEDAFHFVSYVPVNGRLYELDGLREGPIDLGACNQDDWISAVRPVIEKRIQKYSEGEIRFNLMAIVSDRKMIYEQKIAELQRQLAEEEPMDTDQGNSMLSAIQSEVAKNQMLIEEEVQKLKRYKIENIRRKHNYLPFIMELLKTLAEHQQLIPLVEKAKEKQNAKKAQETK
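Reagent: Ub-AMC substrate; assay system: Proteasome-associated human UCH37 deubiquitinase; controls: no-proteasome and no-compound wells; read-out: % inhibition of Ub-AMC cleavage fluorescence; timing: 30 min preincubation with enzyme, 25 min cleavage at room temperature; signal: AMC fluorescence from Ub-AMC cleavage, excitation 355 nm, emission 460 nm; buffer or medium: Tris-HCl pH 7.4 plus ovalbumin, ATP-MgCl2, DTT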
FGF22 binding = binders of recombinant human FGF22 by thermal shift | calls only at 9.99 µM | SYPRO orange fluorescence; percent of sucrose octasulfate shift, DMSO zero | 340,000 tested, 1.5% active | Q9HCT0;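 active = melting point raised past a set limit in the mean and every replicate; three in four hits are not shown here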
Target sequence (Q9HCT0 whole entry, looked up): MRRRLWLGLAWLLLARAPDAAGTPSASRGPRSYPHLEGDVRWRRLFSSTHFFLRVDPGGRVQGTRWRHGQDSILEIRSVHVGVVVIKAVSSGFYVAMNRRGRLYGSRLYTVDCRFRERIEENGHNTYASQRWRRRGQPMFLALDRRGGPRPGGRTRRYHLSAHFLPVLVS
MLL AF4-AF9 inh = blocks AF4 peptide binding to human AF9 | P42568 | AlphaScreen, biotin-AF4 peptide binding to FLAG-AF9 | inhibition, % at 10 µM | 350,000 tested, 0.47% active | AID 651704;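 active = every replicate reaching a set inhibition limit, whatever the replicate mean, cut at about 25% in these data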;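 also: 0% = plate neutral control median and 100% = total signal loss; the record names both 10 and 1 µM as test concentration; the first replicate is given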
rRNA inh HTS OD600 = second read-out of rRNA inh HTS, no call of its own (marks repeat the call); OD600 change, %; measured here: OD600 growth;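 optical density of the mix in the first replicate; 0 = DMSO median and -100 = no signal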
rRNA inh HTS RFP = also measured in rRNA inh HTS; calls as there; RFP signal change, %; measured here: RFP humanized mutant strains;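 first replicate; 0 = DMSO median and -100 = no signal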
An asterisk follows results filed as active; i = inactive; x = not tested or not shown; & = joins results of further samples. The list is partial; the hit share may differ from the screen's.

Values in the order: UCH37 DUB inh	Beta apoptosis	rRNA inh HTS	MLL AF4-AF9 inh	FGF22 binding	rRNA inh HTS OD600	A1 inh	Ecoli growth	T cruzi inh	rRNA inh HTS RFP
[1] O=C(Nc1ccccc1N1CCN(C(=O)c2ccccc2)CC1)c1ccc(Br)o1
    4.2	17.4	-38.1	1.9	i	-62.2	-0.5	0.659	46.2	-9.1
[2] CC/C(=N\NC(N)=O)c1ccc(OC)c(OC)c1
    x	-7.6	x	-0.1	i	x	0.0	x	-9.2	x
[3] O=C(CN1C(=O)NC2(CCCC2)C1=O)OCCOc1ccc(Cl)cc1Cl
    1.5	-1.5	-8.7	0.9	i	-26.4	-0.1	0.626	-12.2	0.6
[4] Cc1ccc(O)c(NC(=S)NC(=O)COc2ccc(Br)cc2)c1
    -4.4	-1.1	-23.6*	-3.8	i	-13.5*	0.4	0.718	8.3	6.1*
[5] COc1ccc(NCc2ccc([N+](=O)[O-])s2)cc1
    6.5	x	x	x	x	x	0.0	0.641	37.2	x
[6] COc1cccc(N2CCN(c3ccc4nnc(CCC(=O)Nc5cccc(C(C)=O)c5)n4n3)CC2)c1
    -12.3	x	1.3	-0.2	i	0.1	-1.3	0.72	-6.9	0.4
[7] Cc1ccc(/C=C2/C(=O)c3ccc(C(=O)O)cc3C2=O)o1
    16.6	x	-0.4	-3.3	i	4.2	x	0.681	10.0	3.2
[8] CCOc1ccc(S(=O)(=O)N(CC(=O)N2CCc3ccccc32)Cc2ccco2)cc1
    1.1	6.7	x	x	x	x	-0.3	0.778	10.8	x
[9] Cc1ccc(S(=O)(=O)N2CCC(=O)N(CCOCc3ccc(F)cc3)CC2)cc1
    4.5	2.5	-9.7	-1.3	i	-14.4	0.6	0.679	0.9	-2.0
[10] O=C(Oc1ccc2c3c(c(=O)oc2c1)CCC3)c1ccccc1[N+](=O)[O-]
    -33.2	-16.2	x	x	x	x	0.6	0.721	-6.4	x
[11] C/C(=N\NC(=O)C(O)c1ccccc1)c1ccc(Cl)cc1 (stereo not given)
    x	-4.2	11.8	-1.9	i	4.2	-0.1	x	-4.5	0.8
[12] COc1ccc(CN2CC(=O)N(c3ccccc3C)C2=S)cc1OC
    -0.4	-4.9	-14.2	3.1	i	-9.1	0.6	0.707	0.9	7.1
[13] CCOC(=O)c1cnn(-c2ncnc3c2cnn3C)c1N
    4.6	-3.6	6.2	-2.7	i	3.1	0.3	0.675	-3.3	0.0
[14] CC(=O)Nc1ccc(S(=O)(=O)NCC2CCC(C(=O)NCCCN(C)Cc3ccccc3)CC2)cc1 (stereo not given)
    0.9	0.2	11.9	3.0	i	5.1	-0.7	0.645	17.6	-0.3
[15] CCC(C)c1ccc(NC(=O)Nc2cccnc2)cc1 (stereo not given)
    5.8	7.2	x	1.8	i	x	-0.7	0.65	5.3	x
[16] CN(C)S(=O)(=O)c1ccc(Cl)c(NC(=O)COC(=O)CCC(=O)c2cccs2)c1
    -0.1	-2.0	8.2	-12.2	i	5.2	1.4	0.69	-6.5	8.0
[17] Cc1c(C(=O)N/N=C/C(C)C)[nH]c2c([N+](=O)[O-])cccc12
    x	-6.8	3.2	-1.0	i	8.1	-1.7	x	-27.3	-4.6
[18] O=C(CCCCn1c(=O)[nH]c2ccccc2c1=O)NCc1ccc2c(c1)OCO2
    1.4	x	x	x	x	x	0.5	0.742	4.1	x
[19] CCN1C(=O)CSC1=Nc1ccc(OC)cc1
    1.5	-5.2	16.1	-4.6	i	8.7	0.6	0.614	5.3	1.1
[20] Cc1ccc(S(=O)(=O)Nc2nc3ccccc3nc2NCc2ccco2)cc1C
    -7.0	-4.8	x	x	x	x	0.0	0.762	-3.0	x
[21] COc1cc(NC(=S)NCCCO)c(OC)cc1Cl
    7.4	-7.3	19.6	0.1	i	18.7	0.4	0.68	-22.0	0.9
[22] CCCNC(=O)N1CCN(S(=O)(=O)c2ccc(C)c(C)c2)CC1
    0.7	-6.4	x	x	x	x	1.2	0.726	-11.6	x
[23] CC(CC(=O)O)CC(=O)NNC(=O)c1cccc(Br)c1 (stereo not given)
    2.1	-0.7	12.2	-0.4	i	19.6	-0.2	0.695	-0.7	2.9
[24] NS(=O)(=O)c1ccc(N2CCOCC2)c(C(=O)NCc2ccc3c(c2)OCO3)c1
    3.3	x	5.6	-0.8	x	6.4	x	0.694	x	2.1
[25] CC(=O)c1ccc(NC(=O)CSC(=S)N2CCCC2)cc1
    4.1	-2.1	5.7	1.2	i	3.3	0.3	0.728	-6.3	-2.1
[26] C[C@@H]1CN([C@@H](C)CO)C(=O)c2cc(NC(=O)CCC(F)(F)F)ccc2O[C@H]1CN(C)S(=O)(=O)c1ccc(Cl)cc1
    1.0	-0.6	-1.1&-6.3	-2.2&-1.2	i	-6.6&-5.9	0.9	x	x	-1.0&-0.3
[27] C(#CCN1CCOCC1)CCCN1CCOCC1
    2.4	x	2.9	-2.5	i	8.0	x	0.686	x	-6.0
[28] Cc1ccc(N(C(=O)Cc2cccs2)C2C=CS(=O)(=O)C2)cc1Cl (stereo not given)
    1.6	-5.3	8.2	-6.5	x	-6.0	0.9	0.671	1.7	6.5
[29] O=C1OC(c2ccccc2)=N/C1=C/c1cccc(OC(=O)c2cccs2)c1
    -7.0	-5.8	x	x	x	x	1.2	0.75	-11.5	x
[30] Cn1cc(Cl)c(C(=O)Nc2cccc(Cl)c2Cl)n1
    1.3	-0.5	x	x	x	x	-1.3	0.706	13.4	x

Arranged by SMILES length (ascending): some entries from above
Values in the order: UCH37 DUB inh	Beta apoptosis	rRNA inh HTS	MLL AF4-AF9 inh	FGF22 binding	rRNA inh HTS OD600	A1 inh	Ecoli growth	T cruzi inh	rRNA inh HTS RFP
[27] C(#CCN1CCOCC1)CCCN1CCOCC1
    2.4	x	2.9	-2.5	i	8.0	x	0.686	x	-6.0
[19] CCN1C(=O)CSC1=Nc1ccc(OC)cc1
    1.5	-5.2	16.1	-4.6	i	8.7	0.6	0.614	5.3	1.1
[28] Cc1ccc(N(C(=O)Cc2cccs2)C2C=CS(=O)(=O)C2)cc1Cl (stereo not given)
    1.6	-5.3	8.2	-6.5	x	-6.0	0.9	0.671	1.7	6.5

Next entries.
Values in the order: UCH37 DUB inh	Beta apoptosis	rRNA inh HTS	MLL AF4-AF9 inh	FGF22 binding	rRNA inh HTS OD600	A1 inh	Ecoli growth	T cruzi inh	rRNA inh HTS RFP
[31] COc1cccc(NC(=S)NCCCN2CCOCC2)c1
    -0.1	x	x	-0.1	i	x	0.0	0.703	-10.8	x
[32] O=C(CCCN=C1NS(=O)(=O)c2ccccc21)OCC(=O)N1CCc2ccccc21
    3.4	-0.6	x	x	x	x	0.4	0.74	1.4	x
[33] O=C(Cc1ccc(S(=O)(=O)N2CCOCC2)s1)NCCc1ccc(F)cc1
    0.1	1.6	5.4	0.8	i	2.5	0.2	0.646	1.0	-0.5
[34] COc1ccccc1-c1cc(C(F)(F)F)nc(N2CCOCC2)n1
    -16.2	-5.5	x	x	x	x	-0.2	0.649	0.2	x
[35] CCOc1ccc(N(CC(=O)N2CCOCC2)S(=O)(=O)c2ccc(SC)cc2)cc1
    -0.2	-2.7	-6.0	5.5	i	-7.5	-0.5	0.668	-10.2	0.1
[36] CCOCCc1nnc(NC(=O)C2CC(=O)N(c3ccc(OCC)cc3)C2)s1 (stereo not given)
    0.8	0.0	14.5	1.7	i	27.9	-0.1	0.652	4.6	1.4
[37] Cn1c(N)c(C(=O)COC(=O)c2ccc3c(c2)C(=O)N(c2ccc(Cl)cc2)C3=O)c(=O)n(C)c1=O
    1.1	-3.5	10.8	-4.8	i	4.2	0.5	0.707	-15.0	-1.2
[38] COc1ccc(CN(C)C(=O)C(Cc2ccccc2)NC(=O)c2ccccc2)cc1F (stereo not given)
    5.7	x	-11.7	-1.0	i	-19.2	x	0.701	x	3.0
[39] O=C(NNC(=O)c1cccs1)c1ccc(Cl)c(S(=O)(=O)N2CCCC2)c1
    2.8	0.5	3.8	0.8	i	-3.3	-1.0	0.687	x	-2.6
[40] CCOC(=O)c1c(C)[nH]c(C)c1C(=O)COc1ncnc2cc([N+](=O)[O-])ccc12
    3.8	-0.6	11.7	1.6	i	6.6	0.7	0.702	50.3	1.2
[41] COc1cccc(-c2nc(CS(=O)(=O)CC(=O)NCCCN3CCOCC3)c(C)o2)c1
    -0.6	-6.3	4.6	-8.6	i	8.5	-0.3	0.659	-5.1	-2.6
[42] Cc1c(C(=O)O)c(=O)n(-c2ccccc2)n1-c1ccccc1
    0.1	1.3	6.6	1.1	i	-2.9	-0.2	0.678	-13.8	0.1
[43] COc1ccc(OC)c(/C=N/Nc2cc(C)nc(N3CCOCC3)n2)c1
    x	0.5	x	-3.3	i	x	-0.3	x	0.0	x
[44] Cc1nn(CCCC(=O)NCCc2ccccc2)c(=O)c2nn(-c3ccccc3)c(C)c12
    2.7	-1.0	2.9	-6.4	i	-2.3	-0.2	0.664	-0.5	-0.3
[45] COc1ccc(S(=O)(=O)N(C)CC(=O)NCc2cccnc2)cc1C
    2.7	x	x	x	x	x	1.4	0.791	-4.1	x
[46] CC(CNc1nc2ccc(Cl)cc2n2cnnc12)c1ccccc1 (stereo not given)
    -8.5	13.8	13.7	-1.4	i	21.1	-0.4	0.674	9.8	1.1
[47] CC(=O)Nc1ccc(NC(=O)C(C)OC(=O)C2CCN(S(=O)(=O)c3cccs3)CC2)cc1 (stereo not given)
    6.8	-0.7	3.8	5.4	i	6.1	-0.2	0.64	6.9	-3.9
[48] CC(=O)c1ccc(C(=O)N2CCCC(N3CCN(c4ccc(F)cc4)CC3)C2)s1 (stereo not given)
    -0.4	1.4	-0.8	-3.1	i	0.2	-0.3	0.658	16.8	-2.1
[49] O=C1CCc2cc(S(=O)(=O)N3CCC(C(=O)NC4CCCCCCC4)CC3)ccc2N1
    4.9	x	4.9	-6.4	i	12.4	x	0.762	x	4.2
[50] CCOc1ccccc1-c1nc(CN2CCC(C(=O)N3CCOCC3)CC2)c(C)o1
    -5.8	-1.2	3.0	1.7	i	5.1	1.5	0.662	0.2	1.3

Some of these compounds in order of the rRNA inh HTS RFP value, smallest number first.
item	structure	rRNA inh HTS RFP
41	COc1cccc(-c2nc(CS(=O)(=O)CC(=O)NCCCN3CCOCC3)c(C)o2)c1	-2.6
37	Cn1c(N)c(C(=O)COC(=O)c2ccc3c(c2)C(=O)N(c2ccc(Cl)cc2)C3=O)c(=O)n(C)c1=O	-1.2
16	CN(C)S(=O)(=O)c1ccc(Cl)c(NC(=O)COC(=O)CCC(=O)c2cccs2)c1	8.0
